# Source: PubChem
# PV pol inh: poliovirus RdRp elongation inhibitors, primary screen, biochemical, fluorescence polarization, total intensity | Genome polyprotein (Poliovirus type 1 (strain Mahoney)), P03300 | poliovirus polymerase elongation; active compounds read low | actives 0.66% (n = 150,000) | % elongation, % (compound at 16.7 µg/mL); in the data active = % elongation below about 90%; note: some results filed as inactive read as strong as hits
# Target sequence (P03300 1749-2209 limits assumed): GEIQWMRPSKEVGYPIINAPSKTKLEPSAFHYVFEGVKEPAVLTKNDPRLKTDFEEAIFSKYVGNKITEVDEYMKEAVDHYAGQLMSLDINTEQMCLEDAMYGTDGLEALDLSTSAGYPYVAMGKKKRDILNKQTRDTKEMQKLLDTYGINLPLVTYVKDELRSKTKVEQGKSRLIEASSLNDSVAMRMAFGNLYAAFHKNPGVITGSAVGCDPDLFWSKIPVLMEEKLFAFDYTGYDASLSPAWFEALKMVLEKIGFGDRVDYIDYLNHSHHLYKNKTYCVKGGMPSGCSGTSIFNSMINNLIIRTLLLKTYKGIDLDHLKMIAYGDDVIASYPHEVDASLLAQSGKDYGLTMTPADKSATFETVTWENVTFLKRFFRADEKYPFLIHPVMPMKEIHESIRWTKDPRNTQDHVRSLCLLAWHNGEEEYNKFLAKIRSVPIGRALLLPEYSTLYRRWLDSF
# Mtb MbtI inh: MbtI salicylate synthase inhibitors, primary screen, biochemical, fluorescence intensity. P9WFX0. purified MbtI enzyme, fluorescence intensity read-out. actives 0.89% (n = 100,000). inhibition, %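 (about 17 µg/mL by stock and volumes)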. AID 493033, 2011;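 active = above 50% in both replicates, above 80% if mildly self-fluorescent; inactive = the rest, strongly fluorescent compounds included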;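 note: 0% = mean of negative and 100% = mean of positive controls; one replicate is shown; some compounds called inactive have numbers as strong as hits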
# Target sequence (P9WFX0 whole entry, looked up): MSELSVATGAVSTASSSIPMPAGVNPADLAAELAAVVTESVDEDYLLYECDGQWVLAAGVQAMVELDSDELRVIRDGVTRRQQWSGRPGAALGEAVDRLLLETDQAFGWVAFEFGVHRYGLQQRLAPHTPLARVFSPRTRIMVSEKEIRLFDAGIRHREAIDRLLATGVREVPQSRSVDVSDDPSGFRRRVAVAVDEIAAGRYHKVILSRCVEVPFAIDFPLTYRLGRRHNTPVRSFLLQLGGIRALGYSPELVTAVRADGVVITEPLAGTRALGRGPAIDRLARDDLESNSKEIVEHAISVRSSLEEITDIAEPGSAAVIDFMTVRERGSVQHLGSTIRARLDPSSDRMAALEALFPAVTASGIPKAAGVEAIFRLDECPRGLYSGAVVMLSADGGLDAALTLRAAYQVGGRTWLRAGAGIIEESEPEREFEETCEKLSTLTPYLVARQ
# MenB inh: M. tuberculosis MenB inhibitors, primary screen, biochemical, absorbance | MenB enzyme assay, absorbance read-out; some hits fall short of the stated cut | inhibition, %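 (about 12 µg/mL by stock and volumes)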 | actives 0.43% (n = 100,000) | AID 540299, 2011;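 active = mean of two replicates above 30%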;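 note: 0% = no compound and 100% = wells with inactive enzyme; the first replicate is given; strong numbers were not always called active; inactives centre near -10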
# PV pol inh intensity: further read-out of PV pol inh, marked with its call; % elongation; measured here: total intensity read-out; formula for this scale not given here;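 total fluorescence in place of polarization; lower means less elongation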
# * marks the source's active call; other numbers are inactive results; nt = no result given.
mol	MenB inh	PV pol inh intensity	Mtb MbtI inh	PV pol inh
CC(C)C(C(=O)O)N1C(=O)/C(=C/C=C/c2ccco2)SC1=S (stereo not drawn)	-274	96	9	109
CC(C)(C)C(=O)/C=c1\[nH]c(=O)/c(=C\c2cccs2)s1	-40	125	24	107
O=C1CN(c2ccccc2)C(=O)CN1c1ccccc1	0	104	-5	100
NC(=O)c1ccccc1NC(=O)CCC(=O)O	2	110	nt	105
CCCN(CCC)C1=CC(=O)C(C)=C(C)C1=O	-34	92*	-26	86*
NCC1OC(COC[C@@H]2C(O)[C@H](OC3C(O)C(N)CC(N)C3OC3OC(CN)C(O)C(O)C3N)O[C@@H]2CO)C(N)C(O)C1O (stereo partly drawn)	-2	102	0	101
O=C(Nc1ccc(-c2cn3c(n2)SCC3)cc1)c1ccc2c(c1)OCO2	-28	110	91	105
Cc1c(C(=O)OCCN2CCOCC2)oc2ccccc12	-7	96	nt	97
NS(=O)(=O)c1ccc(NC(NC(=O)c2ccco2)C(=O)c2ccc(Cl)cc2)cc1 (stereo not drawn)	-14	101	-3	103
CC1=C(C#N)C(=O)N(CCc2ccccc2)C(=O)/C1=C\c1ccc(-c2ccccc2)o1	-19	98	0	101
CCN(CC)Cc1ccc(C(=O)NCc2ccc(Cl)cc2)o1	5	102	6	104
CC1CCCCC1NC(=O)COC(=O)c1ccc(Cl)c(S(N)(=O)=O)c1 (stereo not drawn)	-1	111	-3	105
COC(=O)C1C(c2ccc(OC)c(OC)c2)C(C(=O)OC)S(=O)(=O)CS1(=O)=O (stereo not drawn)	7	96	16	100
CN(C)C(=O)CSc1nc2ccccc2o1	nt	106	-7	104
CCc1ccc(NC(=O)Nc2nnc(N(CC)c3ccccc3)s2)cc1	11	98	5	102
CC(C)C(=O)NCC(c1cccnc1)N1CCN(c2ccccc2)CC1 (stereo not drawn)	0	103	1	101
Cc1ccc(OC(=O)/C=C/c2cccs2)cc1	-19	102	8	100
CCCCNC(=O)N1CCCN(c2ccc(C#N)cn2)CC1	12	106	nt	103
Cc1c(C)n(C(=O)CN2CCc3ccccc32)c2ccccc12	2	100	-4	101
CCc1ccc(N(C)C(=O)CN2Cc3ccccc3C2=O)cc1	2	98	4	99

# Record cards, from the list above. Values in the order: MenB inh	PV pol inh intensity	Mtb MbtI inh	PV pol inh
# Entry for Cc1c(C)n(C(=O)CN2CCc3ccccc32)c2ccccc12 : 2	100	-4	101
# Entry for CCc1ccc(NC(=O)Nc2nnc(N(CC)c3ccccc3)s2)cc1 : 11	98	5	102
# Entry for O=C(Nc1ccc(-c2cn3c(n2)SCC3)cc1)c1ccc2c(c1)OCO2 : -28	110	91	105
# Entry for NS(=O)(=O)c1ccc(NC(NC(=O)c2ccco2)C(=O)c2ccc(Cl)cc2)cc1 (stereo not drawn) : -14	101	-3	103
# Entry for CCN(CC)Cc1ccc(C(=O)NCc2ccc(Cl)cc2)o1 : 5	102	6	104

# The main list resumes; the 2 compounds before the break are reprinted first.
mol	MenB inh	PV pol inh intensity	Mtb MbtI inh	PV pol inh
Cc1c(C)n(C(=O)CN2CCc3ccccc32)c2ccccc12	2	100	-4	101
CCc1ccc(N(C)C(=O)CN2Cc3ccccc3C2=O)cc1	2	98	4	99
COC(=O)c1sc(SC)c(C#N)c1-c1ccco1	-4	113	16	104
CS(=O)(=O)NCC(c1ccco1)N1CCCCC1 (stereo not drawn)	-7	101	19	104
O=C(CCc1ccc(S(=O)(=O)N2CCCCCC2)cc1)Nc1nnc(C2CC2)s1	-4	98	-7	98
COc1cccc(NC(=O)N2CCC(N(C)C(C)C)CC2)c1	7	101	-4	100
CCOC(=O)c1c(C)[nH]c(C(=O)CN2C(=O)NC(CC)(c3ccc(F)cc3)C2=O)c1C (stereo not drawn)	-10	112	-5	106
CCc1ccc(-c2cc(C)no2)cc1S(=O)(=O)N(C)Cc1ccccc1	-13	104	-4	101
Cc1ccc(C2C3=C(CC(C)(C)CC3=O)NC3=C2C(=O)c2ccccc23)cc1 (stereo not drawn)	-5	98	2	102
CCn1c2ccccc2c2cc(/C=N/NC(=O)Cc3cccs3)ccc21	-14	102	-7	103
O=C(NC1CC1)c1cccc(NC(=O)C2COc3ccccc3C2)c1 (stereo not drawn)	-6	101	-7	101
COC(=O)c1ccc(NC(C)=O)cc1	4	102	nt	102
C=CC1CN2CCC1CC2[C@H](O)c1cnc2ccccc2c1 (stereo partly drawn)	3	97	nt	107
CC1CN=C(NC(=O)c2ccccc2)S1 (stereo not drawn)	nt	104	3	101
CCc1noc(C)c1C(=O)Nc1sc(C(=O)N(C)C)c(C)c1C(=O)OC	-1	103	37	98
COc1ccc(N(Cc2cc(C)on2)S(=O)(=O)c2cc(C)ccc2C)cc1	-25	110	-6	104
O=C(Cn1cnnn1)OCC(=O)c1ccc(Cl)s1	-1	129	50	117
CCn1c2ccccc2c2nnc(N3CCN(c4ccccc4)CC3)nc21	14	99	-1	102
CC1CCCC(C)N1CC(O)COc1c(F)cc(Br)cc1F (stereo not drawn)	nt	108	-12	105
COc1ccc(-c2nnc(C3CCN(S(=O)(=O)c4ccc(F)c(C)c4)CC3)o2)cc1	-4	102	0	101
O=C(O)C1C2C=CC(C2)C1C(=O)NCc1cccc(Cl)c1 (stereo not drawn)	-14	102	0	100
O=C(NCc1ccccc1Br)C1CCCO1 (stereo not drawn)	2	102	-2	102

# Other structures follow.
mol	MenB inh	PV pol inh intensity	Mtb MbtI inh	PV pol inh
O=c1[nH]c(CSc2nnnn2C2CCCC2)nc2ccccc12	-27	122	5	114
CC(OC(=O)c1ccco1)C(=O)NC1CCCC1 (stereo not drawn)	28	102	-3	102
N#CCSc1nnc(NC2CCCCC2)s1	-4	109	4	104
CCOC(=O)c1cc(NC(=O)Nc2nccs2)c(C)nc1C	-38	108	10	102
CCOc1c(Br)cc(C(=O)N2CCC(C(N)=O)CC2)cc1OC	-3	107	1	108
Fc1cccc(Cl)c1C=Nc1cccnc1	-15	146	-40	122
Cc1ccc(/C=N/N=C/c2ccc(C)s2)s1	-67	101	0	98
O=C(NCc1ccccc1)c1ccccc1O	nt	95	76	102
C=Cn1cccc1-c1ccccc1	-10	120	3	111
O=C(Cn1ncc(Cl)c(Cl)c1=O)Nc1ccc(Cl)cc1	8	97	-12	91
CCOC(CCn1c(SCc2cc(=O)n3ccccc3n2)nc2ccccc2c1=O)OCC	1	107	-16	102
COC(=O)CSC1=NC(=O)/C(=C/c2ccc(OC)cc2)S1	-81	147	nt	146
Cc1nn(CCSc2cc(Cl)ccc2Cl)c(=O)c(C#N)c1C	-17	106	10	101
COC(=O)c1ccc(Cn2c(O)c(N=O)c3ccccc32)o1	-28	101	1	100
Cc1ccc(S(=O)(=O)N2CCCC2)cc1-c1nnc2c3ccccc3c(C)nn12	1	101	7	101
CCc1ccc(NC(=O)C2CCN(C(=O)c3ccc(F)cc3)CC2)cc1	-17	96	2	103
CCOc1ccc(C2Nc3ccccc3NC3=C2C(=O)CCC3)cc1 (stereo not drawn)	3	103	12	103
CCOC(=O)N1CCN(C(=O)CCNS(=O)(=O)c2cc(Br)cnc2N)CC1	-21	101	41	102
N#CNC1=NCN(Cc2ccccc2)CN1	-31	102	-1	102
COc1ccc(OC)c(CCCCc2cc(OC)ccc2OC)c1	-5	110	-9	106

# Random excerpt: 4 records from the list.
mol	MenB inh	PV pol inh intensity	Mtb MbtI inh	PV pol inh
CN(C)C(=O)CSc1nc2ccccc2o1	nt	106	-7	104
Fc1cccc(Cl)c1C=Nc1cccnc1	-15	146	-40	122
CC1=C(C#N)C(=O)N(CCc2ccccc2)C(=O)/C1=C\c1ccc(-c2ccccc2)o1	-19	98	0	101
CCc1ccc(-c2cc(C)no2)cc1S(=O)(=O)N(C)Cc1ccccc1	-13	104	-4	101

# The listing continues.
mol	MenB inh	PV pol inh intensity	Mtb MbtI inh	PV pol inh
COC(=O)c1cc2ccsc2n1CC(=O)Nc1ccc(C)cc1C	-3	105	3	103
COc1ccc(/C=C2\SC3C(C#N)=C(c4ccc(OC)cc4)C(C#N)=C(N)N3C2=O)cc1 (stereo not drawn)	-6	114	-13	105
O=C(Cn1nnc(-c2ccccc2F)n1)N1CCCCC1	-8	92	nt	101
NC(=O)c1cc(S(=O)(=O)N2CCCC2)ccc1OCc1nc(-c2ccccc2)no1	-5	93	3	102
Cc1[nH]c2ccccc2c1/C=N/c1c(-c2ccco2)nc2ccccn12	-68	127	nt	105
CN(C)CCN1C(=O)c2oc3ccc(F)cc3c(=O)c2C1c1cccs1 (stereo not drawn)	1	100	-53	101
O=C(NCc1nc(-c2ccccc2)no1)C12CC3CC(CC(C3)C1)C2	-1	99	0	104
COCc1cc(C)nc2sc3c(=O)n(C(C)(C)C)nnc3c12	11	102	2	102
Cc1cccc(N=C2NC(=O)CS2)c1	20	106	0	102
Cc1noc(C)c1C(=O)OCc1cc(F)cc2c1OC(c1ccccc1)OC2 (stereo not drawn)	-3	108	14	106
CSc1ccc(/C=C/C(=O)O)cc1	nt	103	86	104
N#Cc1oc2ccccc2c1NC(=O)COC(=O)Cc1cccc(C(F)(F)F)c1	-27	101	2	103
CC(C)CCNC(=O)c1c[nH]c2ccc(S(=O)(=O)N3CCC4(CC3)OCCO4)cc2c1=O	0	107	-69	101
Cn1c(CC2Sc3ccccc3NC2=O)n[nH]c1=S (stereo not drawn)	-19	107	2	102
Cc1ccc(NC(=O)CSCc2nc3ccc(Cl)cc3n2CCO)cc1C	2	98	3	100
CN(C)C(=O)C1OC(C)(C)OC1C(=O)N(C)C (stereo not drawn)	-21	104	-13	99
Cc1cc(NC(=O)COC(=O)c2ccc(S(=O)(=O)N3CCCc4ccccc43)cc2)no1	-8	102	-11	98
Nc1ccccc1C(=O)NCc1c(F)cccc1Cl	-9	108	-158	110
Cc1sc2ncnc(OCC(=O)N3CC(=O)Nc4ccccc43)c2c1C	6	106	-6	103
CCOC(=O)C1=C(C)OC2(O)c3ccccc3C(=O)C12O (stereo not drawn)	15	55*	-6	56*

# Other compounds follow:
mol	MenB inh	PV pol inh intensity	Mtb MbtI inh	PV pol inh
Cc1cc(Cl)ccc1OCC(=O)OCC(=O)c1ccc[nH]1	12	104	4	112
O=C(O)C(c1ccccc1)N1CCCC1 (stereo not drawn)	-29	101	-4	106
CC(C)c1ccc(C2=CC(=O)C=CC2=O)cc1	-8	103	89	105
Cc1cc(C(F)(F)F)nc(SCC(=O)c2ccccc2)n1	5	102	-13	99
CC12C=CC(O1)C1C(=O)N(c3ccc(F)c(Cl)c3)C(=O)C12 (stereo not drawn)	1	117	51	106
Cc1cccc(NC(=O)c2cccc(C(=O)Nc3cccc(C)c3)c2)c1	-2	107	0	104
Cn1c(C(Cc2ccccc2)NC(=O)c2ccccc2)nc2ccccc21 (stereo not drawn)	-23	94	6	101
O=C(O)c1ccccc1-n1c(=O)c2cc3c(=O)n(-c4ccccc4C(=O)O)c(=O)c3cc2c1=O	-13	98	-4	100
O=C(O)c1sccc1S(=O)(=O)N1CCN(c2ccc(C(F)(F)F)cn2)CC1	6	113	-14	103
Cc1cnc(C(=O)Nc2ccc(-n3cnnn3)cc2)cn1	-5	102	-2	102
CC(C)(C)c1ccc(-c2noc(CNS(=O)(=O)c3ccccc3)n2)cc1	-36	103	-38	103
N#C/C(C(=O)NC1CC1)=c1/s/c(=C/c2ccco2)c(=O)n1-c1ccc(F)cc1	-26	185	-6	145

# Limited to MenB inh, PV pol inh intensity and PV pol inh, for five of the compounds above:
compound,MenB inh,PV pol inh intensity,PV pol inh
Cc1cccc(NC(=O)c2cccc(C(=O)Nc3cccc(C)c3)c2)c1,-2,107,104
Cn1c(C(Cc2ccccc2)NC(=O)c2ccccc2)nc2ccccc21 (stereo not drawn),-23,94,101
O=C(O)c1ccccc1-n1c(=O)c2cc3c(=O)n(-c4ccccc4C(=O)O)c(=O)c3cc2c1=O,-13,98,100
O=C(O)c1sccc1S(=O)(=O)N1CCN(c2ccc(C(F)(F)F)cn2)CC1,6,113,103
Cc1cnc(C(=O)Nc2ccc(-n3cnnn3)cc2)cn1,-5,102,102
